Assay outcomes as filed in PubChem.
Vaccinia mCherry = qHTS for Stage-Specific Inhibitors of Vaccinia Orthopoxvirus: mCherry Reporter Primary qHTS; Vaccinia virus mCherry reporter infection, fluorescence; about a quarter of the inactives have no number; Potency, µM (series often up to 36.5 µM), for inactives: top-dose activity change, negative = inhibition, most hits filed as inhibitors; actives 0.63% (n = 310,000); AID 720579, 2013; active = well fitted inhibition curve with a large enough effect; inconclusive = small, poorly fitted or top-dose-only effect; inactive = no such curve, though single readings can be large or run the other way; tested in A549 cells; further: nearly all actives have a fitted effect of over 35% in size; inactives centre near -10
Vaccinia Venus = qHTS for Stage-Specific Inhibitors of Vaccinia Orthopoxvirus: Venus Reporter Primary qHTS | Potency, µM (doses to about 36.5 µM), inactives show at the highest dose activity change, negative = inhibition, usual class: inhibitors | Vaccinia virus Venus reporter expression, fluorescence | AID 720580, 2013 | actives 0.46% (n = 330,000); active means well fitted inhibition curve with a large enough effect; inconclusive means small, poorly fitted or top-dose-only effect; inactive means no such curve, though single readings can be large or run the other way; tested in A549 cells; further: nearly all actives have a fitted effect of over 30% in size; inactives centre near -10
* hit, by the source's call; i = inactive; u = inconclusive; x = not tested or not shown; [ ] = dose if it differs, or a comment. On the % scale 0 is the no-effect control and ±100 the full control effect; potency means the concentration at half of the fitted maximal effect.

SMILES	Vaccinia mCherry	Vaccinia Venus
Cc1cc2[nH]c(=O)c(=O)[nH]c2cc1S(=O)(=O)Nc1cccc(Cl)c1C	-2%	-2%
Cc1ccc(OCC(=O)Nc2ccc3c(c2)OCO3)c(C)c1	-5%	-3%
COc1ccc(-c2cnc3c(c2)CCC3(C#N)C#N)cc1	u	-26%
O=c1c2cn[nH]c2[nH]c(=S)n1-c1cccc(Cl)c1	-13%	-13%
O=C(C1CCN(S(=O)(=O)N2CCOCC2)CC1)N1CCN(Cc2ccc3c(c2)OCO3)CC1	-12%[1.46 µM]	-16%
CN(Cc1ccccc1)C(=O)c1cccc(NC(=O)Cc2cccc([N+](=O)[O-])c2)c1	u	u
Cc1ccc(S(=O)(=O)NCC(c2cccnc2)N(C)C)cc1 (configuration not stated)	-15%	-9%
CCc1ccc(-n2nc(C)c3c(C)cc(=O)n(CC(=O)Nc4cc(Cl)ccc4OC)c32)cc1	-5%	4%
Cc1cccc(NC(=O)c2ccc(Cl)c(S(=O)(=O)N3CCCC3)c2)n1	-25%	-20%
Cc1nnc(NC(=O)CCSc2ccccc2)s1	i	-16%
Cc1cc(=O)[nH]c(N/N=C/c2c(C)oc3ccccc23)n1	i	16%
COCCn1c(C)cc(O)c(C(c2ccccc2)N2CCC(C)CC2)c1=O (configuration not stated)	-3%	-16%
Cc1ccc(S(=O)(=O)NCC2CCC(C(=O)NCCCN3CCOCC3)CC2)cc1 (configuration not stated)	x	-22%
O=C(NCc1ccco1)Nc1cccc2ccccc12	-8%	-9%
Cc1ccc(CNC(=O)CN2C(=O)CC(c3ccc(C)c(C)c3)=Nc3ccccc32)cc1	-10%	-6%

Quoted at random: 5 compounds from above
SMILES	Vaccinia mCherry	Vaccinia Venus
O=c1c2cn[nH]c2[nH]c(=S)n1-c1cccc(Cl)c1	-13%	-13%
Cc1ccc(S(=O)(=O)NCC2CCC(C(=O)NCCCN3CCOCC3)CC2)cc1 (configuration not stated)	x	-22%
O=C(NCc1ccco1)Nc1cccc2ccccc12	-8%	-9%
COCCn1c(C)cc(O)c(C(c2ccccc2)N2CCC(C)CC2)c1=O (configuration not stated)	-3%	-16%
O=C(C1CCN(S(=O)(=O)N2CCOCC2)CC1)N1CCN(Cc2ccc3c(c2)OCO3)CC1	-12%[1.46 µM]	-16%

Returning to the listing with the 6 entries that preceded the break.
SMILES	Vaccinia mCherry	Vaccinia Venus
Cc1nnc(NC(=O)CCSc2ccccc2)s1	i	-16%
Cc1cc(=O)[nH]c(N/N=C/c2c(C)oc3ccccc23)n1	i	16%
COCCn1c(C)cc(O)c(C(c2ccccc2)N2CCC(C)CC2)c1=O (configuration not stated)	-3%	-16%
Cc1ccc(S(=O)(=O)NCC2CCC(C(=O)NCCCN3CCOCC3)CC2)cc1 (configuration not stated)	x	-22%
O=C(NCc1ccco1)Nc1cccc2ccccc12	-8%	-9%
Cc1ccc(CNC(=O)CN2C(=O)CC(c3ccc(C)c(C)c3)=Nc3ccccc32)cc1	-10%	-6%
COc1cc(C(=O)N(Cc2ccccc2)c2cccc(C)c2)ccc1OCC(=O)N1CCOCC1	-13%	-26%
COc1ccc(C2=[N+]([O-])C(C)(C)C(c3ccccc3)=N2)cc1	-14%	-12%
Cc1cccc(N/C(N)=N/c2nc(C)cc(=O)[nH]2)c1	i	-1%
O=C1N[C@H](Cc2ccccc2)COC(=O)[C@@H](Cc2ccc(F)cc2)C/C=C\C[C@H]1CC(=O)N(CCO)Cc1ccccc1	i	u
N#C/C(=C/c1cn(-c2ccccc2)nc1-c1cccc(OCc2ccc(F)cc2)c1)C(=O)NCCCn1ccnc1	-24%	u
CC(=O)C(C(c1ccccc1)N1CCCc2ccccc21)N1CCOCC1 (configuration not stated)	-8%	7%
O=C(O)c1ccc([N+](=O)[O-])c([N+](=O)[O-])c1	i	9%
O=c1cc(CNC2CCCCC2)c2ccccc2[nH]1	-10%	-8%
O=C(c1cccc(F)c1)N1CCN(Cc2ccco2)CC1	x	-6%
Cc1nc(Cl)cc(CS(=O)(=O)c2ccc(Cl)cc2)n1	6%	4%
O=C(c1ccccc1)N(CCCn1ccnc1)C(c1ccccc1)c1nc2ccccc2[nH]1 (configuration not stated)	4%	-9%
CC1(C(=O)Nc2cccc(NS(C)(=O)=O)c2)CCN1Cc1ccccc1OC(F)F (configuration not stated)	12%	-4%
CCc1nc(SCC(=O)NC2CC2)c2c(C)c(C)sc2n1	79%[activator]	1%
CN(C)c1cc(F)c(C=O)cc1F	-18%	3%
O=C(Cc1ccc(NC(=O)C2CCCN(C(=O)CCc3ccccc3)C2)cc1)Nc1ccc(C(=O)N2CCOCC2)cc1 (configuration not stated)	-26%	-3%
CCOC(=O)Cc1csc(NC(=O)C(C)(C)CC)n1	i	-14%
Cc1cc(NC(=O)CSCCc2ccncc2)no1	-6%	4%
Cc1cc(C)c(S(=O)(=O)NN=C2c3ccccc3[C@H]3Cc4csc[n+]4[C@@H]23)c(C)c1	i	10%
C[C@H]1CCC[C@@H](O)CCC/C=C/c2cc(O)cc(O)c2C(=O)O1	u	u
COc1ccc(CCNC(=O)CCn2c(=O)c3ccccc3n(CC(=O)Nc3ccc(C)cc3C)c2=O)cc1OC	-24%	-21%
CC1CCc2c(sc(NC(=O)c3ccc(Cn4cc(Br)cn4)o3)c2C(N)=O)C1 (configuration not stated)	i	2%
CN(Cc1ccc(Cl)c(Cl)c1)C(=O)CN1C(=O)NC2(CCCC2)C1=O	u	-27%
CCCCC(=O)NC(c1ccc(Cl)cc1Cl)c1ccc2cccnc2c1O (configuration not stated)	u	u
CC(=O)Nc1ccc(NC(=O)c2ccc(C3SCC(=O)N3CCc3ccccc3)cc2)cc1 (configuration not stated)	i	u
CCOc1ccccc1C(c1c(O)nc(SC)[nH]c1=O)c1c(O)nc(SC)[nH]c1=O	-5%	4%
O=C(CS(=O)(=O)c1ccccc1)Nc1nccs1	-21%	3%
O=c1[nH]c2ccccc2n1Cc1ccccc1	i	-2%
CCOc1ccc(Br)cc1S(=O)(=O)Nc1ccc(C(=O)OC(C)C(=O)N(C)c2ccccc2)cc1 (configuration not stated)	-16%	-27%
CCCCN(C(=O)Cc1ccc(S(=O)(=O)N2CCOCC2)s1)c1c(N)n(CC(C)C)c(=O)[nH]c1=O	-15%	-9%
CCC(=O)N(CC(=O)Nc1sc(C)c(C)c1C(N)=O)Cc1ccc(F)cc1	i	-6%
COC(=O)CC1C(=O)NCCN1Cc1cn(-c2ccc(C)cc2)nc1-c1cccc(C)c1 (configuration not stated)	-11%	-12%
Cc1c(C)c(C)c(S(=O)(=O)N2CCNCC2)c(C)c1C	-29%	-25%
OC(Cn1nnc2ccccc21)Cn1c(C(F)(F)F)nc2ccccc21 (configuration not stated)	x	-7%
COc1cccc(CNC(=O)c2ccc(OCC(=O)N3CCOCC3)c(OC)c2)c1	-29%	-14%
COc1ccccc1CNC(=O)Cn1cc2c(n1)CCCC2	-3%	-3%
COc1ccc(-c2onc(C)c2C)cc1S(=O)(=O)N1CCN(c2cc(C)ccc2C)CC1	i	-19%
CN1CC(O)(C(O)C(O)C(O)CO)SC1=S (configuration not stated)	i	-9%
O=C(NCc1ccco1)C(=O)NCC1OCCN1S(=O)(=O)c1ccc(F)cc1 (configuration not stated)	-12%	-5%
COc1cc2c(cc1OC)CN(C(=O)c1cc(S(=O)(=O)N3CCOCC3)ccc1C)CC2	i	-14%
O=C(/C=C/c1ccccc1)OCN1C(=O)c2ccccc2C1=O	-2%	-12%
COc1ccc(NC(=S)N2CCC(NC(=O)c3cccc(F)c3)CC2)cc1	i	-19%
Cc1ccc(S(=O)(=O)N2CN(CC3CCCO3)c3nc4ccccc4nc32)cc1 (configuration not stated)	0%	17%
COc1ccc(-c2[nH][nH]c(=O)c2NC(=O)c2ccc(C)cc2)cc1	i	-3%
Cc1cccc(C)c1NC(=O)CN(C)CC(=O)Nc1ccc(C#N)c(Cl)c1	-22%	-17%
Nn1c(COc2ccc(Cl)cc2)nc2ccccc2c1=O	-3%	-25%
COc1cccc(-c2cnc(C(O)c3ccccc3OC)[nH]2)c1 (configuration not stated)	i	-19%
COC(=O)C1=C(C)NC(C)=C(C(=O)OC)C1C(=O)OCc1nc2cc(C(=O)OC)ccc2c(=O)[nH]1	-16%	-7%
Cc1cc(C)n2nc(C(=O)OCC(=O)c3cc(C)n(C)c3C)nc2n1	-9%	-8%
C=C(C)CN1C(=O)C2(OCCO2)c2cc(Br)ccc21	i[7.34 µM]	-10%[7.34 µM]
O=C(NC1CC2CCCC(C1)N2C(=O)Nc1ccccc1)C1CC1 (configuration not stated)	i	-10%
Cc1cccc(N2CCN(C(=O)c3cccn4c(=O)c5cc(Cl)ccc5nc34)CC2C)c1 (configuration not stated)	-18%	-5%
c1ccc2c(Nc3ccncc3)nc(-c3ccoc3)nc2c1	i	0%
c1ccc(CN2CCN(Cc3ccc4c(c3)CN(Cc3c[nH]c5ccccc35)CCO4)CC2)nc1	-13%	-12%
CCOC(=O)c1c(S(=O)(=O)N2CCCC(C(=O)N3CCN(c4cc(C)ccc4C)CC3)C2)c(C)n(C)c1C (configuration not stated)	-18%	-16%
CCOc1ccc(C2c3[nH]c4ccccc4c3CCN2C(=O)Cn2cncn2)cc1 (configuration not stated)	-8%	-7%
COC(=O)c1sccc1NC(=S)N1CCCC(C)C1 (configuration not stated)	-13%	-12%
N#Cc1ccc(OC(=O)Cc2ccsc2)cc1	-9%	-12%
COc1cc(NC(=O)Nc2cccc(Cl)c2)c(OC)cc1NC(=O)CN1CCCCC1	x	u
COc1ccc(CN2CC3CC(C2)c2cccc(=O)n2C3)cc1OC (configuration not stated)	-10%	-8%
COCC#Cc1cnc2c(c1)C(=O)N([C@H](C)CO)C[C@H](C)[C@@H](CN(C)S(=O)(=O)c1ccccc1)O2	-14%	-10%

Among those listed so far, these contain a nitro group on carbon:
SMILES	Vaccinia mCherry	Vaccinia Venus
CN(Cc1ccccc1)C(=O)c1cccc(NC(=O)Cc2cccc([N+](=O)[O-])c2)c1	u	u
O=C(O)c1ccc([N+](=O)[O-])c([N+](=O)[O-])c1	i	9%

Remaining list, next part
SMILES	Vaccinia mCherry	Vaccinia Venus
Cn1c(O)c(C(=O)c2ccccc2)c(=O)n(C)c1=O	x	-4%
CC1=C(C(=O)N(C)CCC#N)C2(CCCCC2)OC1=O	4%	-8%
O=c1[nH]c(=S)n(C2CC2)c(O)c1C=NCC1CCCO1 (configuration not stated)	-15%	-12%
CCOc1cc(/C=C2\N=C(C)OC2=O)cc(Br)c1OCCc1ccccc1	-15%	-6%
COc1ccc(OC)c([C@@H](O)[C@H](C)N)c1	i	-7%
CCc1ccccc1N1CCN(S(=O)(=O)c2cc(OC)ccc2OC)CC1	-2%	-3%
O=C(Nc1ccc(F)c(Cl)c1)c1cc(C2CCCN(S(=O)(=O)c3cccs3)C2)on1 (configuration not stated)	13%	-10%
COc1ccc(C2=C(N3CCN(c4cc(Cl)ccc4C)CC3)c3ccccc3C2=O)cc1	-10%	-3%
CN(C)CCNC(=O)c1ccc(-c2cnn(C)c2)c2ccoc12	-11%	-3%
COc1ccccc1N1C(=O)[C@@H]2C(C(=O)CN3C(=O)c4ccccc4C3=O)=NN[C@@H]2C1=O	-10%	-4%
COc1cccc(NC(=O)c2ccc3c(c2)N(C)CCS3)c1	u	-23%
OCCCn1c(-c2ccc(F)cc2)csc1=Nc1ccc(F)cc1	-23%	-13%
Cc1cccc(NC(=O)c2ccc3nc(CCc4ccccc4)oc3c2)c1C	-8%	-5%
CCCCn1c(SCC(=O)NC2CCCC2)nnc1-c1ccco1	7%	2%
CN(C)CCN(C(=O)c1ccc(S(=O)(=O)N(C)c2ccccc2)cc1)c1nc2cc3c(cc2s1)OCO3	-30%	-3%
O=c1nccc(N/N=C/c2ccccc2O)[nH]1	1µM*	u
CCOc1ccc(NC(=O)c2ccc3c(c2)N(Cc2ccc(F)cc2)C(=O)CS3=O)cc1 (configuration not stated)	-11%	-8%
O=C(CCCN1C(=O)/C(=C\c2cccs2)SC1=S)Nc1ccccc1O	-15%	-29%
COc1cc(/C=C/C(=O)O)cc(OC)c1O	-4%	-9%
N=C1C(c2nc3ccccc3s2)=C(O)CN1C1CCC(O)CC1 (configuration not stated)	-16%	-14%
COc1ccc(S(=O)(=O)N(CC(=O)NCC2CCCO2)C2CCCCC2)cc1OC (configuration not stated)	-9%	-7%
COC(=O)c1cc(OC)c(OC)c(OC)c1NC(=O)c1ccc(S(=O)(=O)N(C)C)cc1	-11%	-10%
O=C(c1cc2n(n1)C(C(F)(F)F)CC(c1ccc(F)cc1)N2)N1CCCC1 (configuration not stated)	-12%	-7%
O=C(CC1C(=O)NCCN1C(=O)Nc1ccc(Cl)cc1)Nc1ccc(F)cc1 (configuration not stated)	-7%	-28%
Fc1c(F)c(C(F)(F)F)c(F)c(F)c1N1CCN(c2ccc3nnc(C(F)(F)F)n3n2)CC1	x	-9%
CCn1c(SCC(=O)N2CCOCC2)nc2c(c1=O)SC(C)C2 (configuration not stated)	3%	-3%
COc1ccccc1NC(=O)CSc1nnc(-c2ccccn2)o1	i	-8%
Cc1ccc(-c2ccc(/C=N/NC(N)=S)o2)cc1	u	u
COc1cc(C(=O)NNC(=S)NC(=O)/C=C/c2ccccc2)cc(OC)c1OC	-18%[7.34 µM]	-12%[7.34 µM]
COc1cccc(C(=O)Nc2cc3c(cc2Cl)OCCCO3)c1	i	-3%
COC(=O)Cc1ccc(NC(=S)N2CCC(Cc3ccccc3)CC2)cc1	i	-15%

The order is random. Share with any hit: about 0.86%.
